PINK1 expr mod: modulators of PINK1 expression. PINK1 immunofluorescence, high-content cytometry, 24 h. Potency, µM (titrated, usually from 76.6 µM), for the others: at the highest dose activation (PINK1 increase), actives largely listed as activators. AID 624263. hit rate 0.2% among 410,000; active = well fitted activation curve with a large enough effect; inconclusive = small, poorly fitted or top-dose-only effect; inactive = flat fitted curve, though single readings scatter; cell line not stated here;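 further: potency means the concentration at half of the fitted maximal effect; % of control where 0% means no effect; nearly all actives have a fitted effect of over 65% in size; a mitochondrial uncoupler was the plate control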
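Readout is PINK1 immunofluorescence, quantified alongside mitochondrial, cell and nuclear markers by laser-scanning microplate cytometry. Cells from a stable line were exposed to compound titrations (5 concentrations) for 24 hours, with CCCP controls.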
CtBP-E1A inh: inhibitors of CtBP/E1A interaction; hit rate 0.49% among 340,000; AID 651724; activity change, % (test concentration not listed); AlphaScreen GST-E1A/His-CtBP binding, 1536-well; active compounds read low; control for the full effect not named in the record; in the data active means activity change below about -65%; inconclusive means about -30% to -65%; inactive means above about -30%; further: on the % scale 0 is the no-effect control and ±100 the full control effect
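AlphaScreen with 125 nM GST-E1A and 125 nM His-CtBP (5X stocks) in Tris pH 8.0, 300 mM NaCl, BSA, Tween 20, TCEP. Compounds preincubated 2 h at 37 deg C, then glutathione donor/nickel acceptor beads added for 1 h at 37 deg C in dark.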
TRPML1 inh: inhibitors of human TRPML1 channel. Q9GZU1. TRPML1-inducible cells, Ca2+ dye fluorescence, FDSS; active compounds read low; inhibition of EC80 agonist-evoked calcium signal. activity change, negative = inhibition, % (concentration not given with the values). hit rate 0.02% among 390,000; in the data active means activity change below about -50%; inconclusive means about -30% to -50%; inactive means above about -30%;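 further: stimulus is agonist 54-4 at its EC80 concentration; on the % scale 0 is the no-effect control and ±100 the full control effect; the text of the record puts the active cut at -80%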
Target sequence (Q9GZU1 whole entry, looked up): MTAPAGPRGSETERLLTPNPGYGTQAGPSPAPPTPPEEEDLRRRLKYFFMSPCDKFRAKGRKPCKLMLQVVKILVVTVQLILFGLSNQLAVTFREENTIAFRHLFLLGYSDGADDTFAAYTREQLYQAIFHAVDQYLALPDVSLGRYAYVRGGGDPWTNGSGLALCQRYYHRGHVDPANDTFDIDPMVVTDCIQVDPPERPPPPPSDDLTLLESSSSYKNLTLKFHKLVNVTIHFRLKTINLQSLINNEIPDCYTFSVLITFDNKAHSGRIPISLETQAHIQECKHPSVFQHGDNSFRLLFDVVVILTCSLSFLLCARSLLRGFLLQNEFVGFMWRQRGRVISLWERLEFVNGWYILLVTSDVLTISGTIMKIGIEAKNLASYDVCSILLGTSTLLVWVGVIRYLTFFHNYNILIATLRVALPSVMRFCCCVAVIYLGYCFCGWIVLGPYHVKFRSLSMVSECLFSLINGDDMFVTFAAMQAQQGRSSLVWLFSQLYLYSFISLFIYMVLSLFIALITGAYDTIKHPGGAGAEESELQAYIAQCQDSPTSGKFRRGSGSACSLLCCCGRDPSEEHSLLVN
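TRPML1-DL cells, Tet-induced overnight (~16 h, 37 °C) at 1,500 cells/well, were loaded with Ca8 no-wash dye plus quencher for 45-90 min at room temperature. Compounds were pinned during FDSS kinetic reading; agonist 54-4 at EC80 (4 uM final) then added.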
Six1-Eya2 inh: Six1/Eya2 interaction inhibition; Q15475+O00167; AlphaScreen GST-Six1/His-Eya2 binding, biochemical; active compounds read low; control for the full effect not named in the record; activity change, % (test concentration not listed); hit rate 0.56% among 360,000; AID 651725; in the data active = activity change below about -65%; inconclusive = about -30% to -65%; inactive = above about -30%; further: on the % scale 0 is the no-effect control and ±100 the full control effect
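Compounds are tested against tagged Six1 and Eya2 proteins bridged by glutathione donor and nickel acceptor beads; after a one-hour incubation at 37 °C without light, AlphaScreen emission is recorded.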
TRPML1 ag: agonists of human TRPML1 channel | Q9GZU1 | TRPML1-expressing cells, Ca2+ dye fluorescence, FDSS; host cell line not named in the record; reference of the full effect not given here | activation, % (concentration not given with the values) | hit rate 0.12% among 410,000 | AID 624414; in the data active = activation above about 50%; inconclusive = about 30% to 50%; inactive = below about 30%; further: 0% is about no effect; the text of the record puts the active cut at 80%
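Tetracycline-induced TRPML1-DL cells are seeded and incubated overnight before loading with a no-wash Ca2+ dye and quencher. Agonist activity is taken from the 110 s fluorescence read following compound pin-transfer on an FDSS, before EC80 54-4 challenge.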
D2 agonist: human D2 receptor agonism in beta-arrestin assay; P14416; DiscoveRx PathHunter D2 beta-arrestin, luminescence, 90 min; 100% = 57 uM dopamine signal; activation, % (concentration not given with the values); hit rate 0.084% among 360,000; in the data active = activation above about 40%; inconclusive = about 15% to 40%; inactive = below about 15%; further: compound concentration not given in the record; the text of the record calls up to 30% inactive
Target sequence (P14416 whole entry, looked up): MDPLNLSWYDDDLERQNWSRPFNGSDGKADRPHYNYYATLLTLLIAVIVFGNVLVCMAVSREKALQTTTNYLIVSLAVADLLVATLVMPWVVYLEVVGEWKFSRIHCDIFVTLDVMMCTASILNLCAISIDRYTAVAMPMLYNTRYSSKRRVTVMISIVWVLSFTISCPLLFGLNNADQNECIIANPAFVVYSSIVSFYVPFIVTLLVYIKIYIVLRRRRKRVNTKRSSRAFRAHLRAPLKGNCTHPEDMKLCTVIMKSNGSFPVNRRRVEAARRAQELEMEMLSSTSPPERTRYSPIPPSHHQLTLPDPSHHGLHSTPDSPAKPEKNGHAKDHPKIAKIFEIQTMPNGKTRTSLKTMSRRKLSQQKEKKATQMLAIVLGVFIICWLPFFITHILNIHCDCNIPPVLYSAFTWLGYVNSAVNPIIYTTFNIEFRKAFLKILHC
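DiscoveRx PathHunter D2 beta-arrestin cells (2,100/well) attached overnight, then compound-stimulated 90 min at 37 C in HBSS/10 mM HEPES/0.1% Tween-20 buffer; beta-galactosidase complementation read by luminescence after 1 h at ambient temperature. Dopamine 57 uM final (EC100) as control.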
Numbers without * were called inactive; ? = inconclusive; . = no result given; [ ] = remark or other dose. Compounds as they come, and some 1% of all compounds hit somewhere here.

molecule | D2 agonist | PINK1 expr mod | TRPML1 ag | Six1-Eya2 inh | TRPML1 inh | CtBP-E1A inh
O=C(Cc1ccccc1)Nc1cccc(C(=O)N/N=C/c2ccco2)c1 | -1.7 | 0.6% | 0.4 | 0.2 | 2.4 | 0.9
O=C(O)c1n[nH]c2c1CCCC2 | -2.8 | -0.6% | 0.6 | -7.4 | 2.4 | 1.1
Cc1cccc(C)c1NC(=O)CN(C)CC(=O)N1CC(=O)Nc2ccccc21 | -0.3 | -1.0% | -0.1 | 2.8 | -8.2 | 2.4
CCOC(=O)Cc1csc(NC(=O)c2cccc(N3C(=O)CCC3=O)c2)n1 | -4.4 | . | 0.1 | -6.5 | -6.5 | -8.2
O=C(CSc1nccn1-c1ccc(Cl)cc1)Nc1ccc(Cl)c(Cl)c1 | . | 27.8% | 1.4 | . | 69.9 | .
CNC(=O)c1ccc(NC(=O)c2cc(S(=O)(=O)N3CCOCC3)ccc2N2CCCC2)cc1 | 7.2 | 0.9% | -0.6 | 1.0 | -13.1 | -3.9
CCCOc1ccc2oc(=O)c3c(c2c1)CCCN3C(=O)CN1CCc2ccccc2C1 | 1.2 | 11.9% | 0.6 | -18.6 | 24.6 | -6.8
COc1ccccc1N1C(=O)c2ccc(C(=O)Nc3ccc(F)cc3)cc2C1=O | 3.5 | 1.9% | 0.8 | 5.9 | 13.0 | .
O=C(OCCCN=C1NS(=O)(=O)c2ccccc21)c1ccccc1F | -7.9 | 0.4% | 0.0 | 0.0 | 4.4 | -0.4
O=C(NC1CC1)c1c(O)c2ccccc2[nH]c1=O | -0.6 | -0.9% | -0.7 | -0.3 | -4.8 | 11.3
COC(=O)C(Sc1nc(C)cc(C)c1C#N)c1ccccc1 (stereo unspecified) | -0.4 | ? | 3.2 | 8.9 | -5.2 | 5.6
CC(=O)Nc1ccc(N(CC(O)Cn2c3ccccc3c3ccccc32)S(=O)(=O)c2ccc(C)cc2)cc1 (stereo unspecified) | -3.0 | -2.6% | 2.6 | 0.4 | 4.8 | -6.0
COc1ccc(N2CC(NC(=O)COc3ccc4ccccc4c3)CC2=O)cc1 (stereo unspecified) | . | 0.8% | 0.7 | . | 27.2 | .
N#C/C(=N\Nc1ccccc1)C(=N)N1CCCCCC1 | -3.8 | -0.8% | 2.5 | -8.3 | 10.0 | -3.2
O=C1CN(C(=O)COC(=O)CCCOc2ccccc2)c2ccccc2N1 | -3.1 | -0.2% | 0.1 | 6.1 | 1.2 | -14.2
O=C(Oc1cc(Cl)ccc1Cl)C1=CC=CN2CCS(=O)(=O)N=C12 | -2.4 | 1.6% | -0.7 | 3.6 | 10.1 | .
O=C(c1ccccc1F)N1CCCC(C(=O)N2CCN(c3ccccc3)CC2)C1 (stereo unspecified) | -4.3 | -0.1% | 0.2 | -1.0 | 1.5 | -3.5
Cc1ccccc1OCc1ccc(C(=O)N2CCOCC2)o1 | -1.0 | 4.7% | -0.3 | -4.4 | -4.3 | 2.2
CC1(C(=O)Nc2cccc(OC(F)(F)F)c2)Cc2c(-c3cccc(C(N)=O)c3)ccnc2O1 (stereo unspecified) | 4.6 | 2.0% | -0.6 | 0.3 | . | 0.2
COc1cccc(/C=C/C(=O)OCC(=O)NCc2ccco2)c1 | 0.6 | 0.3% | 0.9 | 0.2 | 10.4 | -6.5
CCOC(=O)N1CCN(C(=O)C(=O)NNC(=O)COc2ccc(Cl)c(C)c2)CC1 | -3.8 | -0.4% | 0.1 | -4.9 | 32.6 | -20.0
CCOC(=O)C(C)Sc1ncnc2nc[nH]c12 (stereo unspecified) | -1.9 | -2.9%[38.3 µM] | 0.4 | 3.9 | -7.9 | -2.1
CCC(=O)Nc1cccc(-c2cn3cccc(C)c3n2)c1 | -4.8 | -0.3% | 0.5 | -5.8 | 21.0 | .
O=C(COC(=O)c1ccc(Cl)c(S(=O)(=O)N2CCOCC2)c1)Nc1ccc2[nH]c(=O)[nH]c2c1 | ? | 2.2% | 1.4 | -26.6 | 9.7 | -9.3
COc1cccc(-c2noc(C3CCCN(C(=O)c4ccc(F)cc4F)C3)n2)c1 (stereo unspecified) | -3.7 | 1.3% | 1.7 | 2.1 | -9.5 | -5.9
CCOC(=O)c1cn(CC)c2ccc(S(=O)(=O)N3CCC(C)CC3)cc2c1=O | -1.7 | -2.7%[38.3 µM] | 0.7 | -4.0 | 8.2 | -5.7
COc1ccc(S(=O)(=O)n2nc(-c3ccc(Cl)cc3)cc2N)cc1OC | 5.3 | 0.0% | 1.2 | -6.7 | 45.4 | -0.1
COc1ccc(S(=O)(=O)N2CCN(Cc3ccccc3)CC2)cc1OC | -5.8 | -1.7% | -0.6 | -1.4 | 18.3 | .
CCOC(=O)c1nn(-c2ccc(OCC)cc2)c(C)c1C(C)=O | 3.0 | 0.4% | 0.3 | 8.1 | 13.3 | -1.8
COc1ccccc1NC(=O)CN1C(=O)CCS(=O)(=O)c2ccccc21 | -1.4 | -0.1% | 0.8 | 3.4 | -16.7 | 3.4
O=C(COc1ccc([N+](=O)[O-])cc1)N1CCN(c2nnc(-c3ccccc3)c3ccccc23)CC1 | -3.1 | 0.1% | 0.6 | -2.8 | 5.0 | .
O=C(O)c1cccc(N2C(=O)C3CC=C(Cl)CC3C2=O)c1 (stereo unspecified) | -3.0 | 2.0% | 0.6 | -16.9 | 2.0 | -2.2
COc1cc(C2c3c(n[nH]c3C)C(=O)N2c2ccc(Br)cc2)ccc1O (stereo unspecified) | 5.0 | -0.8% | 3.1 | -2.5 | 21.3 | 3.1
CCOc1ccc(CNC(=O)c2ccc3c(c2)nc2n3CCC(C)C2)cc1OC (stereo unspecified) | . | -0.3% | 1.8 | . | 4.6 | .
Cc1cccc(CCNc2nc3ccccc3n3nnnc23)c1 | -0.6 | 3.3% | -0.5 | -0.4 | 4.6 | -0.9
CCOc1ccc(NC(=O)NC2CCOC(C)(C)C2)cc1 (stereo unspecified) | 0.4 | 1.8% | -0.9 | -2.6 | -16.1 | -7.9
Nc1cccc2c1C(=O)N(C(=O)/C=C/c1cccc(F)c1)C2=O | -7.5 | 1.5% | -0.4 | -15.9 | 0.9 | -23.7
Cc1ccc(N2CCN(C(=O)C3CCN(c4ncnc5c4nc4n5CCCCC4)CC3)CC2)c(C)c1 | . | -6.3% | 1.5 | . | 3.0 | .
Cc1ccccc1Nc1c(-c2cccnc2)nc2ccc(Br)cn12 | 2.5 | 0.5% | 0.2 | -5.3 | 7.1 | 7.0
O=S1(=O)C[C@H](N2CCCC2)[C@@H](COCc2ccccc2)N1 | -2.1 | 4.8% | 1.4 | 9.0 | ? | -12.2
CCOC(=O)c1cc(C)sc1/N=C/C1C(=O)CCCC1=O | -2.5 | 1.5% | -0.7 | -8.3 | -13.1 | 0.2
COC(=O)N/N=C\c1ccccc1OC/C=C/c1ccccc1 | -5.1 | 5.1% | 1.3 | 0.8 | -7.0 | 1.0
CC(=O)N(c1ccc(N(C(C)=O)S(=O)(=O)c2ccccc2)cc1)S(=O)(=O)c1ccccc1 | 2.6 | 1.1% | 0.5 | 0.9 | 5.2 | 12.6
CC(=O)C1=C(c2ccc(Br)cc2)C(=O)c2ccccc2C1=O | ? | -0.2% | -0.5 | -24.9 | 22.4 | -9.0
O=C(N/N=C/C1CC2CCC1C2)c1c[nH]c2ccccc12 (stereo unspecified) | -4.7 | -0.5% | 3.4 | -1.8 | -2.5 | -16.2
O=C1C=CC(=O)N1N(c1ccccc1)c1ccccc1 | -3.4 | 11.3% | 1.2 | 2.5 | 3.6 | -11.4
COc1cccc(C(=O)/C=C2\NCCc3cc(OC)c(OC)cc32)c1 | 2.1 | 0.0% | 2.2 | ? | -2.6 | -29.1
O=C(NNC(=O)c1ccc(-c2ccccc2)cc1)Nc1ccc(F)cc1F | -1.9 | 5.0% | -0.3 | 4.3 | -3.3 | 5.4
O=C1Cc2cc(NS(=O)(=O)c3ccc(Cl)cc3)cc3c2N1CCC3 | -0.6 | 0.9% | 0.4 | -7.9 | 11.0 | 1.8
CCOc1ccc(NC(=O)Cc2ccccc2)c([N+](=O)[O-])c1 | -5.0 | 0.5% | 2.1 | -23.7 | -2.9 | -17.8
CCn1c(SCc2cccc(F)c2)nc2c(c1=O)SCC2 | 2.9 | 0.5% | 2.6 | -11.6 | 1.0 | 3.2
COC(=O)C1=C(C)N(C(C)c2ccccc2)C(=O)/C1=C\c1ccco1 (stereo unspecified) | -0.6 | 8.6% | 1.7 | -16.6 | 15.5 | 2.5
Cc1ccc(S(=O)(=O)N2CCCC2CNC(=O)C(=O)Nc2ccccc2)cc1 (stereo unspecified) | -9.0 | -1.0% | 1.0 | 29.7 | -1.4 | 0.0
CCCCn1c(N)c(N(CC(C)C)C(=O)CSc2ccc([N+](=O)[O-])cc2)c(=O)[nH]c1=O | 2.2 | -1.1% | 1.0 | 0.2 | 4.0 | 0.6
COc1ccc(C#Cc2ccc3c(c2)O[C@H](CN(C)C(C)=O)[C@H](C)CN([C@@H](C)CO)S3(=O)=O)cc1 | -11.3 | 2.2% | 1.1 | 14.3 | 31.5 | 3.7
CC1(C(=O)Nc2ccc3c(c2)OCO3)CCN1C(=O)C1(c2ccc(Cl)cc2)CC1 (stereo unspecified) | -1.2 | 1.0% | -1.0 | -15.6 | . | -10.8

New compounds follow
molecule | D2 agonist | PINK1 expr mod | TRPML1 ag | Six1-Eya2 inh | TRPML1 inh | CtBP-E1A inh
COc1cccc(C(=O)OCn2nnc3ccccc3c2=O)c1OC | -1.8 | 6.9% | -0.3 | 0.6 | 0.1 | -6.9
CCC(=O)N1CCc2cc(S(=O)(=O)NCc3ccc(C)cc3)ccc21 | . | 2.1% | -1.4 | . | 19.2 | .
CCOc1ccc(S(=O)(=O)NC(C)C(=O)NCc2cccnc2)cc1 (stereo unspecified) | -1.5 | -0.1% | 0.5 | -3.3 | 0.0 | 10.5
COc1cccc(C(=O)NCCNC(=O)c2ccco2)c1 | -3.3 | -1.4% | 0.0 | -1.6 | 2.5 | -11.6
CCOC(=O)c1cc(-c2ccccc2)n(CCCC(=O)Nc2ccc(C)c(Cl)c2)c1C | . | 6.2% | 0.4 | . | -12.3 | .
CCC1CCCCN1S(=O)(=O)c1ccccc1 (stereo unspecified) | 0.5 | -0.2% | 1.1 | -3.3 | 34.0 | 2.7
OCCNCc1c(OCc2ccc(Cl)cc2)ccc2ccccc12 | -6.7 | -1.6% | -0.5 | -5.3 | 9.1 | -26.1
COc1cc(/C=C/c2noc(-c3ccccc3O)n2)cc(OC)c1OC | -0.2 | 15.5% | 4.2 | 2.5 | 10.3 | -8.3
CN(C)CCN1C(=O)C(=O)/C(=C(/O)c2ccc(F)cc2)C1c1ccccc1F (stereo unspecified) | 0.3 | 3.6% | -0.3 | 8.4 | -4.9 | 2.5
